Source: PubChem
Sfp inh = inhibitors of Bacillus subtilis Sfp phosphopantetheinyl transferase; Q9F4F7; Biochemical Sfp PPTase activity, qHTS; Potency, µM, inactives show max response, negative = inhibition, actives largely listed as inhibitors; hit rate 3.5% among 310,000; AID 1490; active = well fitted inhibition curve with a large enough effect; inconclusive = small, poorly fitted or top-dose-only effect, or another doubt; inactive = no such curve, though single readings can be large or run the other way;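 note: the enzyme is Sfp with the accession as filed and its product quenches rhodamine fluorescence; potency is the fitted concentration of half-maximal effect; 0% = enzyme reaction without inhibitor and -100% = no enzyme wells; top concentration of the series not given in the record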
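Fluorescence-quenching assay with 15 nM Sfp, 5 uM rhodamine-CoA and 12.5 uM BHQ-2-labelled ybbR peptide in pH 7.6 Hepes/MgCl2 buffer. Enzyme was pre-incubated with compound for 15 min at room temperature. Rate was taken from the 30-min fluorescence change (525/598 nm).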
CtBP-E1A inh = blocks the CtBP interaction with E1A; AlphaScreen GST-E1A/His-CtBP binding, 1536-well; stronger effect = lower value; control for the full effect not named in the record; activity change, % (concentration not given with the values); AID 651724; hit rate 0.49% among 340,000; in the data active means activity change below about -65%; inconclusive means about -30% to -65%; inactive means above about -30%; note: % is set by controls: 0 for no effect and ±100 for the full control effect
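GST-E1A and His-tagged CtBP (125 nM each as 5X stock) were preincubated with pin-transferred compound for 2 h at 37 °C in the dark, then glutathione donor and nickel acceptor beads were added for 1 h before AlphaScreen reading.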
TRPV1 PAM = enhances activation of the human vanilloid receptor TRPV1; TRPV1-expressing cells, Fluo-8 calcium influx, capsaicin EC20 potentiation; host cell line not named in the record; control for the full effect not named in the record; potentiation, % at 8.33 µM; hit rate 0.02% among 320,000; active means potentiation above 80%; inconclusive means 30% to 80%; inactive means below 30%; note: 0% is about no effect
Target sequence (Q8NER1 whole entry, looked up): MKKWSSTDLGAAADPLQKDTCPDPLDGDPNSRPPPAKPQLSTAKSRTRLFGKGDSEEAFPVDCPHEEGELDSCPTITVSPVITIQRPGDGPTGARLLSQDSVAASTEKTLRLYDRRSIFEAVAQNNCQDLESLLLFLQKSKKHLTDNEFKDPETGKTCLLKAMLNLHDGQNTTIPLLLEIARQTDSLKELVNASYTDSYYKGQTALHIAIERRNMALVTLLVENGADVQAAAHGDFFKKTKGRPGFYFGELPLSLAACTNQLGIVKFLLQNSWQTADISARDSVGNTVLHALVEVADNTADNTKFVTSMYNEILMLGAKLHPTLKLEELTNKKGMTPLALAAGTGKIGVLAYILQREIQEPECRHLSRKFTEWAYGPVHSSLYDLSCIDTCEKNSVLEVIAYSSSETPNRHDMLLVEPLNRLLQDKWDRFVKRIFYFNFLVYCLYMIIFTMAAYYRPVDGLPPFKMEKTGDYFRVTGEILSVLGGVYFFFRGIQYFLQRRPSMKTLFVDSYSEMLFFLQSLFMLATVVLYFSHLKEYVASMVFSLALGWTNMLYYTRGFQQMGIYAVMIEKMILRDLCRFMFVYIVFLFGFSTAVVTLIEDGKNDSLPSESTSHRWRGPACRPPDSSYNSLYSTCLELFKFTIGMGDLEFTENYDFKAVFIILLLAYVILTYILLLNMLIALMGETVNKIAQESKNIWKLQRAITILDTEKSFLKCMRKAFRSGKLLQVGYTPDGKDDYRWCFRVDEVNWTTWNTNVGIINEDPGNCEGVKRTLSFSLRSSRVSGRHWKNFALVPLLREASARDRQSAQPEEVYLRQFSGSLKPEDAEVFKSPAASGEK
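TRPV1-expressing cells were cultured overnight at 35.5C and loaded with Fluo-8 calcium dye for 40 to 90 min at room temperature. After a 10 s baseline, compound was added and calcium influx was read kinetically for 3 min (ex 480/em 520 nm).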
Menin-MLL FL inh = menin-MLL binding inhibition, fluorescein peptide | Fluorescence polarization, fluorescein-MLL peptide displacement from menin | FP activity change, % at 61.4 µM | 290,000 tested, under 10 active | AID 1766; inconclusive = falling polarisation curve, or a change in total fluorescence; inactive = total fluorescence flat and polarisation flat or rising; no compound was filed as active; the % refers to the polarisation; negative = inhibition;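 note: % of control where 0% means no effect; inhibitors lower the polarisation; unlabelled MLL peptide was the positive control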
gsp antag = antagonists of gsp mutant (McCune-Albright syndrome); gsp-mutant cells, cAMP HTRF, 30 min; control for the full effect not named in the record; Potency, µM (series often up to 76.9 µM), without a hit: top-dose activity change, negative = inhibition, most hits filed as inhibitors; hit rate 0.4% among 340,000; active = falling curve of any shape with a large fitted effect; inconclusive = falling curve, mostly with a smaller effect; inactive = flat or rising curve; cell line not stated here;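 note: intracellular cAMP measured with PDE inhibitor Ro 20-1724 present during compound exposure; potency is the fitted concentration of half-maximal effect; % is set by controls: 0 for no effect and ±100 for the full control effect; nearly all actives have a fitted effect of over 65% in size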
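HTRF cAMP measurement after 30 min RT detection following 30 min, 37C compound treatment alongside […] (added as 300 uM solution) in G418-selected cells seeded at 2000/well and grown 16–24 h.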
ClpP mod = qHTS Assay for Activators of ClpP. AID 651965, 2013. purified B. subtilis ClpP, FRET peptide cleavage, 20 min. Potency, µM (titrated, usually from 57.5 µM), for inactives: at the highest dose activity change, negative = active. hit rate 1.9% among 340,000. ATP-dependent Clp protease proteolytic subunit (Bacillus subtilis (strain 168)), P80244; active = well fitted falling curve with a large enough effect; inconclusive = small, poorly fitted or top-dose-only effect; inactive = no such curve, though single readings can be large or run the other way; note: potency is the fitted concentration of half-maximal effect; the source files actives as falling curves though it sought activators and does not explain the sign; nearly all actives have a fitted effect of over 65% in size; many hits overshoot -100%
Target sequence (P80244 whole entry, looked up): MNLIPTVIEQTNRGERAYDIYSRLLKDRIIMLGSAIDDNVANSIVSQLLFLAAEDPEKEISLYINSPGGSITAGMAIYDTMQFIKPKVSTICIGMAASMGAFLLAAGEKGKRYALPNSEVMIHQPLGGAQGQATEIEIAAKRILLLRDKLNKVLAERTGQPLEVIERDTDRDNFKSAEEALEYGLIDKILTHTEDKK
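Buffer: 100 mM Tris/HCl pH8, 100 mM KCl, 0.05% low protease BSA, 2.5% glycerol, 0.01% Tween-20. ClpP 10 microg/mL final; 20 min RT; delta FRET normalized to ADEP and DMSO controls.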
gsp agonist = agonists of gsp mutant (McCune-Albright syndrome); hit rate 0.13% among 340,000; AID 624287; Potency, µM (series often up to 76.9 µM), inactives show at the highest dose activation (cAMP increase), hits mostly activators; gsp mutant cells, cAMP HTRF, 30 min; control for the full effect not named in the record; active = well fitted activation curve with a large enough effect; inconclusive = small, poorly fitted or top-dose-only effect, or another doubt; inactive = no such curve, though single readings can be large or run the other way; cell line not stated here;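 note: phosphodiesterase inhibitor Ro 20-1724 added with compounds to block cAMP breakdown; potency is the fitted concentration of half-maximal effect; nearly all actives have a fitted effect of over 60% in size; about a fifth of the inactives were tested at one dose only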
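Cells in DMEM/10% FBS with G418 were pretreated with compounds in DMSO plus […] (300 uM stock) for 30 min at 37C. cAMP was measured by HTRF (cAMP-d2 plus anti-cAMP antibody-K) after 30 min at room temperature.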
The depositor's hits bear a star; ? = inconclusive; . = not tested or not shown; & = joins results of further samples; [ ] = another dose, or the depositor's remark.

SMILES	Sfp inh	CtBP-E1A inh	TRPV1 PAM	Menin-MLL FL inh	gsp antag	ClpP mod	gsp agonist
C=CCN1CCN(c2ccncc2S(=O)(=O)N2CCOCC2)CC1	0%	-2	-14	0.6	13%	-0.8%	-1%
Cc1nn(-c2ccc(F)cc2)c2nc(N)c(C#N)c(-c3ccc(O)c(O)c3)c12	?	-9	12	7.4	-11%	1.2%	0%[15.4 µM]
CC(=O)Nc1sc(N/N=C\c2ccccc2Cl)nc1-c1cccs1	-15%	4	8	4.8	?	-13%	-20%[15.4 µM]
C[C@@H]1CN([C@H](C)CO)C(=O)c2c(c3ccccc3n2C)-c2ccccc2CO[C@H]1CN(C)C(=O)Nc1ccccc1	.	21	.	.	.	-18%	1%
Cc1ccc(NC(=O)c2cc(-c3ccc(C)o3)nc3ccccc23)cc1	10µM*	-11	-9	11	3%	-7.5%	-25%
CC(=C/C(=O)O)/C=C/c1ccc(Cl)o1	?	0	-7	8.2	3%	1.6%	-3%
Cc1cc(C(=O)Nc2nnc(C(F)(F)F)s2)no1	23%	5	23	-0.1	-14%	-0.6%	?
COc1cc(NC(=O)c2ccco2)c(OC)cc1NC(=O)CCC(=O)Nc1cccc(C)c1C	-3%	?	-4	1.2	-8%	17%	-6%
COc1ccccc1N1CCN(c2ccc3c(c2)S(=O)(=O)c2cccc(C(=O)NCC4CC4)c2C3=O)CC1	.	-5	.	.	.	2.0%	?
CCCCN(CC)CCCNC(=O)c1cn(-c2ccc(OC)cc2)c(=O)c2ccccc12	2%	.	-4	-2.1	8%	-9.0%	6%
COc1ccc(N(C)S(=O)(=O)c2cccc(C(=O)NC3=NCCS3)c2)cc1	6%	-10	4	-2.8	4%	0.1%	18%
C[C@H](CO)N1C[C@H](C)[C@H](CN(C)C(=O)OCc2ccccc2)OCc2cnnn2CCCC1=O	.	1	.	.	.	0.2%	-14%
O=C(/C=C/c1ccccc1Cl)OCC(=O)c1ccc[nH]1	.	?	-3	.	-6%	-3.2%	-16%
CC(=O)c1ccc(NC(=O)C(C)Sc2ccccn2)cc1 (configuration not stated)	-22%	3	1	0.8	-2%	.	8%
O=C(Nc1ccc(Cl)cc1)C1CCN(C(=O)c2cccs2)CC1	2%	0	2	0.1	-2%	.	-4%[15.4 µM]
O=C(COC(=O)c1ccccn1)NCc1ccc(Cl)cc1Cl	.	-10	6	.	8%	-0.2%	-20%
COc1ccc(CCC(=O)Nc2ncc(C)s2)cc1OC	6%	-1	12	-1.4	15%	-0.4%	-29%
Cc1ccc(F)cc1CNC(=O)c1cc(COc2ccc3ncccc3c2)on1	-7%	-4	-2	-0.9	?	.	-42%[inhibitor]
COc1ccc(NC(=O)NC(=O)c2ccccc2)cc1	-6%	.	2	-1.0	-4%	-2.1%	-1%
O=C(N/N=C/c1ccoc1)c1ccc([N+](=O)[O-])cc1	3%	5	-14	.	-11%	0.7%	-34%[inhibitor]
O=C(c1cc2ncc(Br)cn2n1)N1CCCCC1	18%	5	-30	0.3	6%	.	18%[15.4 µM]
Nc1ccc2cc3ccccc3cc2c1	.	-26	.	.	-2%	7.4%	.
COc1ccc(C(=O)C(C)OC(=O)CN2C(=O)c3ccccc3C2=O)cc1 (configuration not stated)	.	-6	.	.	-8%	.	24%
CC(C)C[C@H]1CNC(=S)N1CC1CCN(CCCCc2ccccc2)CC1	.	-1	.	.	6%	-1.2%	.
COc1ccc(/C=C/C(=O)OCc2nc3ccccc3c(=O)[nH]2)c(OC)c1	-15%	4	.	0.6	4%	.	-13%[15.4 µM]

Record cards, from the list above:
CC(=O)c1ccc(NC(=O)C(C)Sc2ccccn2)cc1 (configuration not stated) is entered as Sfp inh = -22%; CtBP-E1A inh = 3; TRPV1 PAM = 1; Menin-MLL FL inh = 0.8; gsp antag = -2%; ClpP mod = .; gsp agonist = 8%
COc1ccc(/C=C/C(=O)OCc2nc3ccccc3c(=O)[nH]2)c(OC)c1 is entered as Sfp inh = -15%; CtBP-E1A inh = 4; TRPV1 PAM = .; Menin-MLL FL inh = 0.6; gsp antag = 4%; ClpP mod = .; gsp agonist = -13%[15.4 µM]
CC(=O)Nc1sc(N/N=C\c2ccccc2Cl)nc1-c1cccs1 is entered as Sfp inh = -15%; CtBP-E1A inh = 4; TRPV1 PAM = 8; Menin-MLL FL inh = 4.8; gsp antag = ?; ClpP mod = -13%; gsp agonist = -20%[15.4 µM]

Gathered by group: those above containing fluorine
SMILES	Sfp inh	CtBP-E1A inh	TRPV1 PAM	Menin-MLL FL inh	gsp antag	ClpP mod	gsp agonist
Cc1nn(-c2ccc(F)cc2)c2nc(N)c(C#N)c(-c3ccc(O)c(O)c3)c12	?	-9	12	7.4	-11%	1.2%	0%[15.4 µM]
Cc1cc(C(=O)Nc2nnc(C(F)(F)F)s2)no1	23%	5	23	-0.1	-14%	-0.6%	?
Cc1ccc(F)cc1CNC(=O)c1cc(COc2ccc3ncccc3c2)on1	-7%	-4	-2	-0.9	?	.	-42%[inhibitor]

The listing continues:
SMILES	Sfp inh	CtBP-E1A inh	TRPV1 PAM	Menin-MLL FL inh	gsp antag	ClpP mod	gsp agonist
CCN(CC)C(=O)CN1CCN(c2ncccn2)CC1	89µM*	6	14	1.2	10%	-0.9%	-19%
CCOC(=O)C1=NN(C(=O)c2ccco2)C2(CC2)C1	8%	0	-11	4.9	-4%	1.9%	-10%[15.4 µM]
O=c1cc(-c2ccccc2)oc2ccc(Br)cc12	.	4	.	.	-2%	-1.4%	.
O=C(OC1Cn2c(=O)ccc(=O)n2C1)c1ccccc1	-12%	12	28	3.0	-2%	0.6%	?
Cc1c(C(=O)Nc2ccc(N3CCOCC3)cc2)oc2ccccc12	-13%	-13	3	0.1	-1%	0.6%	-38%[inhibitor]
CCOC(=O)c1oc2cc(O)cc(O)c2c(=O)c1OCc1ccccc1	.	0	.	.	-33%	-0.3%	.
CCNC(=S)N/N=C1\C(=O)c2cccc3cccc1c23	6%	-15	27	0.0	-8%	1.7%	-25%
COc1ccc(NC(=O)/C(C#N)=C\c2ccc(N3CCOCC3)o2)cc1	-10%	-12	-11	?	?	.	-12%
N=C(N)SCc1cccc2ccccc12	0%	-6	9	-0.6	19%	0.1%	5%
O=C(CCn1c(=O)[nH]c2ccsc2c1=O)N1CCc2ccccc2C1	-9%	-10	-2	4.3	-1%	-3.5%	?
CCN1CCN(C(c2ccccc2OC)c2nnnn2C2CCCCC2)CC1 (configuration not stated)	-8%	-3	21	1.0	1%[15.4 µM]	-5.6%	-68%[inhibitor]
COc1ccc(C(=O)Nc2ccccc2C(=O)Nc2ccccc2)cc1	.	2	.	.	.	78%	-45%[inhibitor]
Cc1sc2nc(CSC(C)C(=O)Nc3cc(S(C)(=O)=O)ccc3Cl)[nH]c(=O)c2c1C (configuration not stated)	.	0	-18	.	1%	.	-2%[15.4 µM]
Cc1ccc(-c2cc(C(F)(F)F)c(C#N)c(=O)[nH]2)cc1	6%	-7	10	0.1	-14%	?	-27%
O=C(NCC(c1ccco1)N1CCN(c2ccccc2)CC1)OCc1ccccc1 (configuration not stated)	15%	-11	3	8.8	4%	0.2%	27%[15.4 µM]
C/C=C/c1cc(CN2CCN(c3ccccc3)CC2)c(O)c(OC)c1	0%	-7	12	0.6	8%	-3.4%	-19%
CC(=O)Nc1ccccc1C(=O)C(=O)Nc1cccc(C(=O)NCc2ccc(C)cc2)c1	-2%	.	20	0.6	.	.	.
CCC1CC(=O)CCN1S(=O)(=O)c1ccc(C)cc1 (configuration not stated)	.	6	.	.	5%	1.7%	.
NS(=O)(=O)c1ccc(CCNC(=O)COC(=O)c2nc(Cl)ccc2Cl)cc1	.	0	-6	.	-24%	-0.3%	4%
C[C@H]1CN([C@@H](C)CO)C(=O)c2cc(Br)cnc2O[C@H]1CN(C)C(=O)c1cccnc1	.	3	.	.	.	2.5%	32µM*
CC/C(=N\NC(=O)COc1ccc(Br)cc1)c1ccc(OC)c(OC)c1	-6%	-16	-20	-1.3	5%	-12%	-29%[15.4 µM]
CCN1CCN(CCC(=O)Nc2ccc(Br)c(C)c2)CC1	-14%	0	-15	4.2	-24%	-0.3%	?
Cc1ccccc1CN1[C@@H](CC2CCCCC2)COCCS1(=O)=O	7%	-10	-12	-4.3	-24%	-1.9%&-1.4%	1%
CC(=O)c1cnc2c(-c3ccccc3)cnn2c1C	12%	5	13	0.6	-9%	1.2%	-1%
Cc1c(O)ccc(/C=N/Nc2nc(-c3cccnc3)nc3ccccc23)c1O	?	.	0	15	-17%	-4.7%&0.5%	11%
The results go on.
SMILES	Sfp inh	CtBP-E1A inh	TRPV1 PAM	Menin-MLL FL inh	gsp antag	ClpP mod	gsp agonist
CC(=NNC(=O)c1cc(C)nc2ccccc12)c1ccc(N2CCOCC2)cc1	.	4	.	.	-7%	-23%	13%[15.4 µM]
O=c1c2ccccc2c(C=NCCc2ccccc2)c(O)n1Cc1ccccc1	10%	-22	-5	3.5	-12%	-3.6%	-10%
Brc1cc(Br)c2nc(-c3ccc(N4CCOCC4)cc3)ccc2c1	-4%	-10	-31	1.5	11µM*	-2.0%	?
CCN(CC)c1ccc(/C=C/c2cc(-c3ccccc3)c3ccccc3n2)cc1	6%	.	2	?	-5%	-3.8%	?
Cc1noc(C)c1S(=O)(=O)N(C)C[C@H]1Oc2ccc(NC(=O)NC(C)C)cc2C(=O)N([C@H](C)CO)C[C@@H]1C	.	-13	.	.	11%	-5.2%	.
Cn1ncc2c(Nc3ccc([N+](=O)[O-])cc3)nc(Cl)nc21	-5%	.	2	-1.1	4%	-1.0%	27%
O=C(NCc1ccccc1Cl)c1cc2c(s1)CS(=O)(=O)C2	9%	2	-24	.	3%	0.4%	42%
COc1ccc(C(=O)CN2C(=O)c3ccccc3C2=O)c(OC)c1	5%	6	27	.	-13%	0.7%	-19%
CC(C)(C)NC(=O)COC(=O)c1snc(C(=O)NC2CCCCC2)c1N	6%	-3	-19	11	?	28µM*	-18%
Cc1noc(C)c1CC(=O)Nc1ccc2c(c1)OCO2	.	.	-8	.	2%	0.5%	2%
